KCNQ2 pot: potentiators of rat KCNQ2 potassium channel | Potassium voltage-gated channel subfamily KQT member 2 (Rattus norvegicus), O88943 | CHO-K1 KCNQ2, FluxOR thallium flux fluorescence; active compounds read high | 310,000 compounds, 0.54% hits | AID 2239, 2010 | B-score at 10 µM;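 active = fluorescence ratio B-score at least 3 SD of library B-scores, with initial fluorescence B-score within 3 SD, cut at about 5.3 in these data; same plate scores as AID 2156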;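 also: B-score of peak minus minimum over baseline fluorescence ratio after K+ and Tl+ stimulus; positive B-score means potentiation of KCNQ2 with more thallium influx and brighter signal; only the inactives scoring about 0 or higher are listed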
Target sequence (O88943 whole entry, looked up): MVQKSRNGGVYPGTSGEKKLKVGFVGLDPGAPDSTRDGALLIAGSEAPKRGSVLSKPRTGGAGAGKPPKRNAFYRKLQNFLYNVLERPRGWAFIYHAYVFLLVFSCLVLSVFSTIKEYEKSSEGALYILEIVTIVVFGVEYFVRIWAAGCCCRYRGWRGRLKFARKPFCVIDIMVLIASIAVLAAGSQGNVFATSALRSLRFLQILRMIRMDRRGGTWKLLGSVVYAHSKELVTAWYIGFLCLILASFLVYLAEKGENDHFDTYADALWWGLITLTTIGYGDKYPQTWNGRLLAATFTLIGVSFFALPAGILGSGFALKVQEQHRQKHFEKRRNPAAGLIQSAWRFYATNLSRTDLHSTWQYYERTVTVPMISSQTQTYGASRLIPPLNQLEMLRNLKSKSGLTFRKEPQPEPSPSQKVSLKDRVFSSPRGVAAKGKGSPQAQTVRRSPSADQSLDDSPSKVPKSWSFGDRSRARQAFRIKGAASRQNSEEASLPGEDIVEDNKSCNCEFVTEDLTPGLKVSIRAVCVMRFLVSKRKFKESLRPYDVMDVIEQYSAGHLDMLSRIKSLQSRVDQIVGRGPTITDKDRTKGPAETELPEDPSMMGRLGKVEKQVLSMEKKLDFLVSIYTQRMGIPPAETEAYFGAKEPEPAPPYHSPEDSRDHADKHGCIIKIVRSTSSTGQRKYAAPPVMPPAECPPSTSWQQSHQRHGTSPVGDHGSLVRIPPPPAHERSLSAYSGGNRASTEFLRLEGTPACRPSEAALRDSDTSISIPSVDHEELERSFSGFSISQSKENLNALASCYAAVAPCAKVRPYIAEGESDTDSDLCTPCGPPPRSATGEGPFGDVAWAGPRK
KCNQ2 pot baseline: also measured in KCNQ2 pot; calls as there; B-score; compound at 10 µM; measured here: initial fluorescence intensity artifact check;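 brightness before thallium and not channel activity; 0 = typical well and far values either way flag optical interference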
* = called active by the depositor. Some of the compounds tested; rates above refer to the full screens.

SMILES	KCNQ2 pot	KCNQ2 pot baseline
COc1cc2c(cc1OC)C(c1cccnc1)CC(=O)N2 (configuration not stated)	0.01	-1.2
CCC(=O)c1cn(CC(=O)Nc2ccccc2Cl)c2ccccc12	0.15	0.63
CCCCN1C(=O)c2ccc(C(=O)Nc3ccc(S(=O)(=O)N(C)C)cc3)cc2C1=O	0.99	0.34
C=CCNc1nc(-c2sc(NC(=O)CC)nc2C)cs1	0.65	-1.3
CCOc1ccc2nc(Nc3nc4ccc(NC(C)=O)cc4s3)sc2c1	0.81	-0.28
CC(=O)Nc1cccc(NC(=O)Nc2ccc(C)c(Cl)c2)c1	2.8	-1
COc1cc(OC)c(C2CC(=O)N3CN(c4ccccc4C)CSC3=C2C#N)cc1OC (configuration not stated)	0.06	1.3
O=C1CCCC2=C1C(c1cccs1)Nc1ccc3ncccc3c12 (configuration not stated)	0.36	0.01
CCn1c(SC(C)C(=O)N2CCOCC2)nc2sc(C)c(C)c2c1=O (configuration not stated)	1.1	0.01
CCOc1ccc(CCNC(=O)c2ccc(CNS(=O)(=O)c3ccccc3)cc2)cc1OCC	0.56	0.79
COc1ccc(C(C(=O)Nc2ccc(C(C)C)cc2)N(C)C(=O)CNC(C)=O)cc1 (configuration not stated)	0.68	0.93
CC(C)NC(=O)CC(=O)N/N=C/c1ccc(F)cc1	0.95	-0.46
CCOC(=O)CSc1nc(C)cc(C)n1	0.37	-0.55
Cn1c(CC2C(=O)Nc3ccc(Br)cc32)nc2ccccc2c1=O (configuration not stated)	0.3	0.37
COc1cc2c(cc1OC)CN(C(=O)COc1ccc(C#N)cc1)CC2	0.17	0.36
CC(C)c1ccc(NS(=O)(=O)c2ccc(Cl)nc2)cc1	1.8	0.5
O=C(Cc1ccccc1)N1CCCC1c1ccccc1 (configuration not stated)	1.2	-1
CCN(CC(=O)Nc1ccc(C)c(S(=O)(=O)N2CCOCC2)c1)Cc1ccccc1	0.08	-0.24
CC(C)N1C(=O)C2C(c3ccccc3O)NC(C)(C(=O)O)C2C1=O (configuration not stated)	1.1	-0.04
CCCC(C)NC(=O)Cc1ccc(Br)cc1 (configuration not stated)	1.9	-0.39
COc1ccccc1N(CC(=O)Nc1cccnc1)S(=O)(=O)c1ccccc1	2.4	1.8
CNC(=S)Nc1ccc2[nH]c(=O)[nH]c2c1	0.53	-2.2
O=C(NCCCN1CCCC1=O)c1cc(S(=O)(=O)N2CCOCC2)ccc1Cl	0.49	2.3
Cc1cccc(C)c1NC(=O)CN1CCc2ccccc2C1	1.1	2.6
CN(C)C(=O)CSc1nc(-c2cccs2)c(-c2cccs2)[nH]1	0.46	0.17
CC(C)C(=O)NC(=S)Nc1ccccn1	0.21	0.05
Cc1c(CC(=O)N2C[C@H]3C[C@@H](C2)c2cccc(=O)n2C3)c(=O)oc2cc3occ(C(C)(C)C)c3cc12	0.23	-2.5
Cc1cc(C)cc(NC(=O)Nc2ccc3c(c2)CCC3)c1	0.71	0.3
CCn1c(Cc2c(C)[nH]c3ccccc23)nnc1SCC(=O)NCc1ccco1	0.69	0.08
CCCCCn1c(=S)[nH]c2ncccc2c1=O	3.1	-0.7

5 entries drawn at random from those above:
SMILES	KCNQ2 pot	KCNQ2 pot baseline
COc1ccccc1N(CC(=O)Nc1cccnc1)S(=O)(=O)c1ccccc1	2.4	1.8
Cc1cccc(C)c1NC(=O)CN1CCc2ccccc2C1	1.1	2.6
CC(C)N1C(=O)C2C(c3ccccc3O)NC(C)(C(=O)O)C2C1=O (configuration not stated)	1.1	-0.04
CCn1c(Cc2c(C)[nH]c3ccccc23)nnc1SCC(=O)NCc1ccco1	0.69	0.08
CNC(=S)Nc1ccc2[nH]c(=O)[nH]c2c1	0.53	-2.2

Returning to the listing; the two compounds before the break are reprinted first.
SMILES	KCNQ2 pot	KCNQ2 pot baseline
CCn1c(Cc2c(C)[nH]c3ccccc23)nnc1SCC(=O)NCc1ccco1	0.69	0.08
CCCCCn1c(=S)[nH]c2ncccc2c1=O	3.1	-0.7
CC(C)CN(Cc1c(O)ccc2ccccc12)CC(C)C	6.5*	-2.1*
Cc1cccc(NC(=O)c2sc3nc(-c4ccc(F)cc4)cn3c2C)n1	0.37	0.83
CCOC(=O)N1CCN(S(=O)(=O)c2ccc3c(c2)CCN3C(=O)C2CC2)CC1	4.1	0.02
CC1(C)SC(=Nc2ccccc2)N(S(=O)(=O)c2ccccc2)C1=O	0.32	0.74
CCC1CCCCN1C(=O)CSc1nnc(CNC(=O)c2cc(OC)c(OC)c(OC)c2)o1 (configuration not stated)	0.53	1.1
O=C(CO/N=C/c1ccc(OC(F)F)cc1)NCc1cccs1	0.2	0.73
COc1cccc(NC(=O)NC2CCCCCCC2)c1	3.5	-0.44
CC(C)NC(=S)N/N=C/C1=CCC2CC1C2(C)C (configuration not stated)	1.4	0.62
CC(=O)Nc1ccc(NC(=O)CSc2nnc(C)c(=O)n2N)cc1	0.36	-2.1
CCOC(=O)Nc1sc(=S)n(C)c1C	0.83	1.8
CC/C(O)=C1\C(=O)CC(C)(C)CC1=NCCc1nc2ccccc2[nH]1	1.5	1.5
O=C1OCCC1Sc1nc2ccccc2c(=O)n1Cc1ccccc1 (configuration not stated)	0.7	-0.47
Cc1ccccc1NC(=O)c1ccccc1NC(=O)c1ccco1	0.37	0.2
CCN1CCN(CCCNC(=O)c2ccc3c(c2)N(Cc2ccc(C)cc2)CCS3)CC1	0.74	-1.1
Nc1ccc(CCn2ccnc2)cc1	0.34	0.68
COc1ccccc1OCc1ccc(C(=O)NCc2ccco2)o1	0.38	-0.04
CN(C)C(=O)CSc1nc2ccc(N3C(=O)c4ccccc4C3=O)cc2s1	1.7	0.68
COC(=O)CC1C(=O)NCCN1C(=S)Nc1cc(C)cc(C)c1 (configuration not stated)	0.83	-2
CCN=c1scc(-c2ccco2)n1/N=C/c1ccc(O)cc1	0.02	-2.1
Cn1c(N)c(C(=O)COc2ccc(Cl)cc2Cl)c(=O)n(C)c1=O	2	0.47
O=C(NC1CCCCCC1)c1ccc(=O)n(Cc2ccccc2)n1	0.28	0.28
O=C1c2c([N+](=O)[O-])cc([N+](=O)[O-])cc2S(=O)N1Cc1ccccc1 (configuration not stated)	1.1	0.15
CN(C)CCCOC(=O)c1cc2ccccc2o1	0.01	0.23
CCOC(=O)c1sc(=S)n(-c2ccccc2)c1C	1.4	-0.04
CCCCc1nnc(NC(=O)CSc2nc(O)c(-c3ccccc3)c(=O)[nH]2)s1	0.05	0.52
COCCn1c(=S)[nH]c2ncccc2c1=O	0.57	0.27
COc1ccc(CN2C(=NC(=O)CCc3ccccc3)SC3CS(=O)(=O)CC32)cc1 (configuration not stated)	0.08	-0.01
CN1C(=O)C(C(=O)NC(C)(C)C)C2c3ccccc3OC13CCCCC23 (configuration not stated)	0.08	0.24
CCOC(=O)C1CCN(C(=O)c2ccccc2Oc2ccccc2)CC1	0.78	-0.77
CSc1cccc(NC(=O)NCc2cccc(CNC(=O)Nc3cccc(SC)c3)c2)c1	0.7	-0.05

Three of the compounds above, with each value named:
compound: CN1C(=O)C(C(=O)NC(C)(C)C)C2c3ccccc3OC13CCCCC23 (configuration not stated)
  KCNQ2 pot: 0.08; KCNQ2 pot baseline: 0.24

compound: CCCCc1nnc(NC(=O)CSc2nc(O)c(-c3ccccc3)c(=O)[nH]2)s1
  KCNQ2 pot: 0.05; KCNQ2 pot baseline: 0.52

compound: O=C(NC1CCCCCC1)c1ccc(=O)n(Cc2ccccc2)n1
  KCNQ2 pot: 0.28; KCNQ2 pot baseline: 0.28

New compounds follow:
SMILES	KCNQ2 pot	KCNQ2 pot baseline
CN(CCc1nc2ccc(Cl)cc2[nH]1)Cc1nc(CC2CC2)no1	1.1	0.28
CCN(C(=O)CSc1ncccc1C(=O)O)C1CCCCC1	0.34	-1.7
COc1cc(SC)ccc1C(=O)NNC(=O)c1cc(C)oc1C	0.67	-0.18
Nc1nc(SCC(=O)N2CCOCC2)[nH]c(=O)c1-c1ccccc1	1.5	0.52
Cc1nnc(NC(=O)Nc2ccc(Cl)c(Cl)c2)s1	0.86	-1.2
Cc1ccc(OC(C)C(=O)N(C)Cc2ccccc2)c([N+](=O)[O-])n1 (configuration not stated)	0.93	0.02
COc1ccc(CN2CCN(Cc3ccc(C(F)(F)F)cc3)CC2)c(OC)c1	1	-1.8
COc1ccccc1N1CCN(C(=O)CSc2nc3ccccc3nc2N2CCC(C)CC2)CC1	1.2	0.6
COC(=O)Cn1nnc(N2CCOCC2)n1	0.26	1.9
O=C(COc1ccc(C(=S)N2CCOCC2)cc1Cl)Nc1ccccc1Cl	0.7	0.11
CCOCCCNS(=O)(=O)c1cc2[nH]c3c(c2cc1C)C(=O)CC(C)(C)C3	1.3	-0.17
COCCCNC(=O)CS(=O)(=O)Cc1nc(-c2cccc(OC)c2)oc1C	0.46	0.59
Cc1ccccc1C(=O)c1c[nH]c(C(=O)NCC2CCCO2)c1 (configuration not stated)	0.57	0.56
O=C(C1=COCCO1)N1CCN(C(c2ccccc2)c2ccccc2)CC1	0.23	-1.6
Cc1onc(-c2ccccc2)c1C(=O)Nc1ccncc1	1.9	-1.1
COc1ccc(-c2csc(NC3OC(=O)c4ccccc43)n2)cc1 (configuration not stated)	2.3	-0.01
COc1ccccc1C(=O)OCC(=O)Nc1cc(S(=O)(=O)N2CCOCC2)ccc1N1CCCC1	0.1	3.7
CC1(C)c2ccccc2-n2c1cc1oc(=O)cc(O)c1c2=O	1.7	-1.6
O=C(C1CCN(S(=O)(=O)Cc2ccccc2)CC1)N1CCCc2ccccc21	0.05	0.59
CCOC(=O)C(=O)Nc1ccc2c(c1)OCO2	0.04	1.1
CSCC(=O)NC1CCCc2c1cnn2-c1cc(F)cc(F)c1 (configuration not stated)	1.1	-0.85
CC(C)c1ccc(CNC(=O)CSCC(=O)Nc2ccc3ccccc3c2)cc1	0.89	-0.24
O=C(O)c1ccc(S(=O)(=O)N2CCN(c3ccccn3)CC2)cc1	0.01	1.1
COc1ccc(C(CNC(=O)Cc2ccc3ccccc3c2)N(C)C)cc1 (configuration not stated)	0.1	-0.54
CCn1c(COc2ccccc2C)nnc1SCC(=O)OC	1.4	-0.88
Cc1ccc(S(=O)(=O)N2CCCC(C(=O)Nc3cccnc3)C2)cc1 (configuration not stated)	3.3	1.1
CC(C(=O)Nc1cccc([N+](=O)[O-])c1)N(c1ccccc1)S(C)(=O)=O (configuration not stated)	1.9	0.62
O=C(CSc1ncccn1)Nc1cc(Cl)ccc1[N+](=O)[O-]	0.45	1.2
Cc1nnc(NC(=O)CN2CCN(Cc3c(Cl)cccc3Cl)CC2)s1	0.24	-0.56
O=C(CS(=O)CC(=O)Nc1cccnc1)Nc1ccc(F)cc1 (configuration not stated)	0.37	0.46
Cc1onc(-c2c(F)cccc2Cl)c1C(=O)N=C(N)N1CCCC1	2.6	1.5
Cc1sc2nc(CN3CCC(C)CC3)nc(Cl)c2c1C	0.17	-0.71
O=S(=O)(c1ccc(Oc2ccc(F)c(Cl)c2)nc1)N1CCOCC1	0.02	-0.03
Cc1c(NC(=O)C(C)N2C(=O)C3C4C=CC(C4)C3C2=O)c(=O)n(-c2ccccc2)n1C (configuration not stated)	1	1.7
O=C(O)c1ccc(NC(=O)c2cn(-c3ccccc3)nc2-c2ccc(Cl)cc2)cc1	1.6	-1.6
Cc1[nH]c(=O)[nH]c(=O)c1S(=O)(=O)N1CCCC(C(=O)NCc2ccccc2Cl)C1 (configuration not stated)	0.51	-0.23
CC1CCC(NC(=O)CCCCn2c(=O)[nH]c3ccsc3c2=O)CC1 (configuration not stated)	1.6	-0.33
O=C1Nc2ccccc2Nc2ncccc21	1.2	0.06
CN(C(=O)COC(=O)c1ccccc1SCC(=O)N1CCCC1)C1CCS(=O)(=O)C1 (configuration not stated)	0.63	-1.2
COc1ccc(C(=O)Nc2ccccc2C(N)=O)cc1	0.25	-1.1
COC(OC)C(C)NC(=O)NC(=O)c1ccccc1Cl (configuration not stated)	2.1	-1
CCN1/C(=C2\C(=O)N(C)C(=S)N2C)C=Cc2cc(OC)ccc21	1.9	1
CCOc1ccc(S(=O)(=O)NCC(=O)N(C)Cc2cccnc2)cc1	0.16	-0.31
CCOc1ccc(CSC2=NCCN2)cc1Cl	1.2	0
COC(=O)c1sccc1-c1ccc(C(N)=O)o1	0.09	0.59
O=C(Cc1cccs1)N/N=C/C=C/c1ccco1	1.7	1.1
Cc1ccc(CN(C)C(=O)C2CCC(=O)N(CCc3ccccc3)C2)o1 (configuration not stated)	0.24	-0.48
O=C(NNC(=O)c1cccnc1SCc1cccc([N+](=O)[O-])c1)c1ccccn1	0.01	0.5
O=C(CSCc1cccc(Br)c1)N1CCOCC1	0.64	-0.87
O=C(Cc1ccc([N+](=O)[O-])cc1)Nc1ccon1	0.74	-1.6
CC1CCN(C(=O)CCCOc2cc(=O)n(C)c3ccccc23)CC1	0.31	1.1
Cc1cccc(N/C(=N\S(=O)(=O)c2ccccc2)C(F)(F)F)c1	0.73	0
O=C(NCc1cccnc1)Nc1cccc(Cl)c1Cl	0.1	0.5
COc1ccc(C(=O)O/N=C(\N)c2ccccc2)cc1	1.3	0.05
Cc1ccc(NC(=O)c2ccc(OC(=O)COc3cccc(Cl)c3)cc2)cc1	0.01	2.9
COc1c(O)c(O)c2oc(-c3ccccc3)cc(=O)c2c1OC	1.6	1.7
CCN1CCN(c2ccc(S(=O)(=O)N3CCCCC3)cc2NC(=O)c2cccc(F)c2)CC1	0.34	-0.48
CC(C)OCCCn1c(SCC(=O)N2CCCC2=O)nc2ccccc2c1=O	2.1	-1.2
NC(=O)SCC(=O)Nc1cccc(Cl)c1	7.7*	2.4*

Screens deposited in PubChem BioAssay by Johns Hopkins Ion Channel Center.
